Bioassay records (PubChem)
Vaccinia inh: Vaccinia orthopox stage-specific inhibition. Vaccinia-infected cells, mCherry/Venus stage reporter fluorescence; active compounds read low; some inactives read as strong as hits. activity change (mCherry), % (concentration not given with the values). actives 0.01% (n = 89,000). AID 1053133;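 active = mCherry past -33% and 40 or more points under the early reporter, replicates agreeing; inconclusive = past -33% without that gap or agreement; tested in A549 cells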;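 also: scaled between vehicle wells and reference inhibitor wells; 23 nL library stock went into each well; one replicate is shown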
Vaccinia inh Venus: also measured in Vaccinia inh; calls as there; activity change (Venus), %; measured here: Venus reporter, other viral stage;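 negative = less Venus signal; first of two replicates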
Numbers without * were called inactive; ? = inconclusive; . = not tested or not shown.

SMILES	Vaccinia inh	Vaccinia inh Venus
C[C@H]1CN([C@@H](C)CO)S(=O)(=O)c2ccc(C#Cc3ccc(F)cc3)cc2O[C@H]1CN(C)S(=O)(=O)c1ccc(F)cc1	?	.
CCNC(=O)C[C@@H]1CC[C@@H]2[C@H](COc3ccc(NC(=O)C4CCOCC4)cc3C(=O)N2C)O1	4.4	2.1
C[C@H]1CN([C@@H](C)CO)C(=O)c2cccc(NC(=O)CCCCCC(=O)Nc3ccccc3N)c2O[C@H]1CN(C)C(=O)Nc1ccc(C(F)(F)F)cc1	0.9	-4.3
COc1ccc(S(=O)(=O)Nc2ccc3c(c2)C(=O)N([C@H](C)CO)C[C@@H](C)[C@@H](CN(C)Cc2ccc(C(F)(F)F)cc2)OCCCC[C@H](C)O3)cc1	?	.
COc1ccccc1CNC(=O)C[C@H]1C[C@H]2c3cc(NS(C)(=O)=O)ccc3O[C@H]2[C@@H](CO)O1	10.5	1.5
C[C@@H]1CCCCO[C@@H](CN(C)C(=O)CCC(F)(F)F)[C@@H](C)CN([C@@H](C)CO)C(=O)c2cc(NC(=O)Cc3ccccc3)ccc2O1	16.9	18.0
C[C@H](CO)N1C[C@H](C)[C@@H](CN(C)C(=O)NC2CCCCC2)Oc2ccc(NC(=O)Nc3ccc(C(F)(F)F)cc3)cc2CC1=O	?	.
C[C@@H]1CN([C@@H](C)CO)C(=O)c2cccc(NS(=O)(=O)c3ccccc3)c2O[C@H]1CN(C)Cc1ccc(C(F)(F)F)cc1	-10.5	-12.0
C[C@@H]1CN([C@H](C)CO)C(=O)Cc2cc(NS(=O)(=O)c3cn(C)cn3)ccc2O[C@H]1CN(C)CC1CCCCC1	-5.1	-4.7
C[C@H]1CN([C@@H](C)CO)C(=O)c2cc(NC(=O)Cn3cnnn3)ccc2O[C@H]1CN(C)Cc1ccc(Oc2ccccc2)cc1	15.0	9.7
OC[C@H]1[C@@H](c2ccc(/C=C/c3ccccc3)cc2)[C@@H]2CN(Cc3cncnc3)CCCCN12	?	.
O=C(C[C@@H]1C[C@@H]2c3cc(NC(=O)c4ccc5c(c4)OCO5)ccc3O[C@@H]2[C@H](CO)O1)NCc1ccc(Oc2ccccc2)cc1	7.8	12.2
CO[C@@H]1CN(C)C(=O)c2ccc(NC(=O)C3CCC3)cc2OC[C@@H](C)N(Cc2ccc(F)cc2)C[C@H]1C	-25.1	-17.4
COc1ccccc1C#Cc1cnc2c(c1)C(=O)N([C@@H](C)CO)C[C@H](C)[C@H](CN(C)C(=O)CN(C)C)O2	0.9	8.3
N#Cc1cccc(-c2ccc([C@H]3[C@@H](CO)N4CCCCN(C(=O)Nc5cccc(F)c5)C[C@H]34)cc2)c1	?	.
Cc1ccccc1S(=O)(=O)N1C[C@@H]2N[C@H](C1)C2c1ccc(-c2ccc(C#N)cc2)cc1 (stereo partly drawn)	?	10.3
COc1ccc(S(=O)(=O)Nc2ccc3c(c2)CC(=O)N([C@@H](C)CO)C[C@@H](C)[C@@H](CN(C)Cc2ccncc2)O3)cc1	18.0	9.2
CCCN1[C@@H]2c3ccc(C4=CCCCC4)c(=O)n3C[C@H]1[C@H](CO)[C@H]2C(=O)NCC	-0.7	-4.9
C[C@H]1CN([C@@H](C)CO)S(=O)(=O)c2ccc(-c3ccc(F)cc3)cc2O[C@H]1CN(C)Cc1ccccc1C(=O)O	7.5	4.5
C[C@@H]1CN([C@@H](C)CO)S(=O)(=O)c2ccc(C#C[C@@H](C)O)cc2O[C@@H]1CN(C)C(=O)CC1CC1	0.7	6.0
CCC(=O)N(C)C[C@@H]1Oc2cc(-c3ccc(C#N)cc3)ccc2S(=O)(=O)N([C@@H](C)CO)C[C@H]1C	14.2	18.9
CC(C)c1cn(CC[C@@H]2CC[C@@H](NC(=O)c3cccc(F)c3)[C@@H](CO)O2)nn1	-0.6	4.0
COc1ccccc1NC(=O)N[C@@H]1CC[C@H](CC(=O)N2CCC(Cc3ccccc3)CC2)O[C@@H]1CO	-15.5	-7.7
CC(=O)N1CCCCN2[C@@H](CO)[C@@H](c3ccc(C#Cc4ccccc4F)cc3)[C@@H]2C1	?	.
CC(=O)N(C)C[C@@H]1Oc2cc(-c3ccccc3F)ccc2S(=O)(=O)N([C@@H](C)CO)C[C@@H]1C	0.2	3.8
O=C(O)[C@@H]1[C@@H](CO)[C@@H]2Cn3c(ccc(-c4ccncc4)c3=O)[C@H]1N2C(=O)C1CCC1	17.2	10.1
Cc1noc(C)c1NC(=O)Nc1ccc2c(c1)C(=O)N([C@H](C)CO)C[C@@H](C)[C@@H](CN(C)S(C)(=O)=O)O2	4.0	4.4
COC(=O)C[C@@H]1CC[C@@H]2[C@H](COC[C@@H](O)CN2C(=O)Nc2cccc(F)c2)O1	14.4	5.3
CC(C)CC#Cc1ccc2c(c1)O[C@@H](CN(C)Cc1ccncc1)[C@@H](C)CN([C@H](C)CO)S2(=O)=O	?	.
Cc1ccc(S(=O)(=O)Nc2ccc3c(c2)CC(=O)N([C@H](C)CO)C[C@H](C)[C@H](CN(C)Cc2ccc(Oc4ccccc4)cc2)O3)cc1	?	.
C[C@@H]1CN([C@H](C)CO)S(=O)(=O)c2ccc(-c3cccnc3)cc2O[C@H]1CN(C)Cc1ccccn1	0.5	-10.4
N#Cc1cccc(-c2ccc(C3[C@@H]4CN(Cc5cocn5)C[C@H]3N4)cc2)c1 (stereo partly drawn)	?	.
CO[C@H]1CN(C)C(=O)c2cc(NC(=O)C3CCCC3)ccc2OC[C@@H](C)N(CCC(F)(F)F)C[C@@H]1C	?	.
CN1c2ccc(Br)cc2[C@H]2[C@H](CCN2C(=O)Cc2cccnc2)[C@H]1CO	7.4	0.0
C[C@H]1CN([C@@H](C)CO)C(=O)c2cc(-c3ccccc3)cnc2O[C@H]1CN(C)C(=O)Cc1ccccc1	6.1	3.4
Cc1noc(C)c1NC(=O)Nc1ccc2c(c1)C(=O)N([C@@H](C)CO)C[C@@H](C)[C@@H](CN(C)S(=O)(=O)c1cccs1)OCCCC[C@H](C)O2	22.5	10.5
O=C(O)[C@H]1[C@H](CO)[C@H]2Cn3c(ccc(-c4ccccc4)c3=O)[C@H]2N1Cc1ccccc1F	-0.6	7.2
C[C@@H]1CN([C@H](C)CO)S(=O)(=O)c2ccc(C#Cc3ccccn3)cc2O[C@@H]1CN(C)Cc1ccc(F)cc1	?	.
CCCNC(=O)N[C@H]1C=C[C@H](CC(=O)N2CCN(C)CC2)O[C@@H]1CO	-7.7	-3.8
Cc1ccccc1S(=O)(=O)N1CC[C@@H]2[C@@H](CO)Nc3ccc(-c4ccccc4F)cc3[C@@H]21	-17.8	-6.6
CCCC(=O)Nc1ccc2c(c1)C(=O)N(C)[C@H]1CC[C@H](CC(=O)NCCc3ccccc3)O[C@@H]1CO2	15.8	1.5
COc1ccc(NC(=O)Nc2cccc3c2O[C@@H](CN(C)Cc2ccncc2)[C@H](C)CN([C@H](C)CO)C3=O)cc1	8.5	4.3
C[C@@H]1CCn2cc(nn2)COC[C@@H](Cc2ccccc2)NC1=O	14.2	6.9
COc1ccc2c3c([nH]c2c1)[C@@H](CO)N(C(=O)Nc1ccc(F)cc1)CC31CN(C(=O)Nc2ccc3c(c2)OCO3)C1	22.6	1.1
C[C@H](CO)N1C[C@H](C)[C@@H](CN(C)CC2CCCCC2)OCCCC[C@H](C)Oc2ccc(NC(=O)c3ccccc3)cc2C1=O	-27.3	-16.7

5 entries from above, sorted by molecular weight, smallest number first:
SMILES	Vaccinia inh	Vaccinia inh Venus
CN1c2ccc(Br)cc2[C@H]2[C@H](CCN2C(=O)Cc2cccnc2)[C@H]1CO	7.4	0.0
CCCC(=O)Nc1ccc2c(c1)C(=O)N(C)[C@H]1CC[C@H](CC(=O)NCCc3ccccc3)O[C@@H]1CO2	15.8	1.5
CO[C@H]1CN(C)C(=O)c2cc(NC(=O)C3CCCC3)ccc2OC[C@@H](C)N(CCC(F)(F)F)C[C@@H]1C	?	.
COc1ccc(NC(=O)Nc2cccc3c2O[C@@H](CN(C)Cc2ccncc2)[C@H](C)CN([C@H](C)CO)C3=O)cc1	8.5	4.3
C[C@H](CO)N1C[C@H](C)[C@@H](CN(C)CC2CCCCC2)OCCCC[C@H](C)Oc2ccc(NC(=O)c3ccccc3)cc2C1=O	-27.3	-16.7

The listing continues:
SMILES	Vaccinia inh	Vaccinia inh Venus
C[C@H]1CN([C@@H](C)CO)C(=O)c2cccc(NC(=O)CCCCCC(=O)Nc3ccccc3N)c2O[C@H]1CN(C)S(=O)(=O)c1ccccc1	8.7	11.0
CNC[C@H]1Oc2ccc(NC(=O)Nc3ccc(F)cc3)cc2CC(=O)N([C@H](C)CO)C[C@@H]1C	9.2	4.4
C[C@@H]1CN([C@@H](C)CO)C(=O)c2cc(-c3cccc(F)c3)cnc2O[C@@H]1CN(C)C(=O)C1CCCCC1	-6.2	4.4
O=C(NCC[C@H]1CC[C@H](NS(=O)(=O)c2cccc(F)c2)[C@@H](CO)O1)C1CCC1	-8.7	0.7
CCCN(C)C[C@H]1Oc2cc(C#Cc3cccc(F)c3)ccc2S(=O)(=O)N([C@@H](C)CO)C[C@H]1C	-32.0	-15.2
CS(=O)(=O)Nc1ccc2c(c1)[C@H]1C[C@@H](CC(=O)NC3CCCCC3)O[C@H](CO)[C@H]1O2	12.3	7.0
CN(C)CC(=O)N[C@H]1CC[C@H](CCNC(=O)Nc2ccc(Cl)cc2)O[C@H]1CO	-5.6	-1.2
O=C(NCCN1CCCCC1)[C@@H]1N[C@@H]2c3ccc(-c4ccncc4)c(=O)n3C[C@@H]2[C@H]1CO	-0.1	0.3
CO[C@H]1CN(C)C(=O)c2cc(NC(C)=O)ccc2OC[C@H](C)N(Cc2nccs2)C[C@H]1C	12.3	5.9
C[C@H]1CN([C@@H](C)CO)C(=O)c2cc(NC(=O)c3ccncc3)ccc2O[C@@H]1CN(C)S(=O)(=O)c1cn(C)cn1	5.5	3.4
C[C@H](CO)N1C[C@H](C)[C@H](CN(C)Cc2ccc(C(F)(F)F)cc2)Oc2ccc(NC(=O)NC3CCCCC3)cc2C1=O	?	.
Cc1noc(C)c1S(=O)(=O)N(C)C[C@H]1Oc2ccc(NS(=O)(=O)c3ccc(Cl)cc3)cc2CC(=O)N([C@@H](C)CO)C[C@H]1C	9.7	-0.1
COc1ccc(NC(=O)Nc2ccc3c(c2)CC(=O)N([C@H](C)CO)C[C@@H](C)[C@@H](CN(C)C(=O)Nc2ccc(F)cc2)O3)cc1	-0.4	6.8
COCC(=O)NC[C@@H]1[C@H](c2ccc(-c3ccccc3)cc2)[C@@H](CO)N1C(C)=O	-2.4	6.9
COc1ccccc1S(=O)(=O)Nc1ccc2c(c1)OC[C@H](C)NC[C@H](C)[C@@H](OC)CN(C)C2=O	10.9	8.9
O=C(C1CCOCC1)N1CC2(C1)[C@H](c1ccccc1)[C@H](CO)N2C(=O)CC1CC1	8.6	16.4
Cc1ccc(S(=O)(=O)N(C)C[C@@H]2Oc3ncc(-c4cccc(C(F)(F)F)c4)cc3C(=O)N([C@H](C)CO)C[C@@H]2C)cc1	?	.
CO[C@H]1CN(C)C(=O)c2ccc(NS(=O)(=O)CC(F)(F)F)cc2OC[C@H](C)N(Cc2ccccn2)C[C@@H]1C	-9.3	-4.5
CS(=O)(=O)Nc1ccc2c(c1)[C@H]1C[C@H](CC(=O)O)O[C@H](CO)[C@H]1O2	0.3	3.3
CO[C@@H]1CN(C)C(=O)c2cc(NC(=O)c3nc4ccccc4s3)ccc2OC[C@H](C)N(Cc2ccncc2)C[C@@H]1C	-11.6	-5.9
CC(C)NC(=O)Nc1ccc2c(c1)C(=O)N([C@H](C)CO)C[C@H](C)[C@@H](CN(C)Cc1ccc3c(c1)OCO3)O2	30.2	11.9
C[C@H]1CN([C@@H](C)CO)C(=O)c2cc(-c3ccccc3)cnc2O[C@@H]1CN(C)C(=O)Cc1cccnc1	7.0	-5.6
C[C@@H]1CN([C@H](C)CO)C(=O)Cc2cc(NC(=O)Nc3cccc4ccccc34)ccc2O[C@H]1CN(C)C(=O)Nc1ccccc1	9.9	5.2
COc1ccccc1NC(=O)N[C@@H]1C=C[C@@H](CC(=O)N[C@@H](C)c2ccccc2)O[C@H]1CO	-17.4	1.4
C[C@@H]1CN([C@@H](C)CO)C(=O)c2cc(NC(=O)Nc3ccccc3)ccc2O[C@@H](C)CCCCO[C@@H]1CN(C)C(=O)C1CCCCC1	9.3	-3.3
CN(C)C(=O)C[C@@H]1CC[C@H]2[C@@H](COC[C@H](O)CN2CC2CCOCC2)O1	16.5	10.3
C[C@H](CO)N1C[C@H](C)[C@@H](CN(C)C(=O)Nc2ccc(F)cc2)OCCCC[C@H](C)Oc2ccc(NC(=O)Cc3ccccc3)cc2C1=O	-5.5	-3.5
CCNC(=O)C[C@H]1CC[C@H]2[C@@H](COC[C@@H](O)CN2C(=O)C2CCOCC2)O1	8.5	1.1
O=C(N[C@@H]1CC[C@@H](CCNS(=O)(=O)c2ccc(F)cc2)O[C@H]1CO)c1cccnc1	-3.5	0.4
CN1c2ccc(Br)cc2[C@H]2[C@H](CCN2C(=O)C2CCOCC2)[C@@H]1CO	-4.3	-5.6
COC(=O)[C@@H]1[C@@H](CO)[C@@H]2Cn3c(ccc(-c4cccnc4)c3=O)[C@@H]2N1Cc1ccccc1F	-5.0	6.2

Part of the list above, bar-delimited:
Structure | Vaccinia inh | Vaccinia inh Venus
CCNC(=O)C[C@H]1CC[C@H]2[C@@H](COC[C@@H](O)CN2C(=O)C2CCOCC2)O1 | 8.5 | 1.1
O=C(N[C@@H]1CC[C@@H](CCNS(=O)(=O)c2ccc(F)cc2)O[C@H]1CO)c1cccnc1 | -3.5 | 0.4
CN1c2ccc(Br)cc2[C@H]2[C@H](CCN2C(=O)C2CCOCC2)[C@@H]1CO | -4.3 | -5.6

Look-ups from the entries so far.
Vaccinia inh Venus, Cc1ccccc1S(=O)(=O)N1C[C@@H]2N[C@H](C1)C2c1ccc(-c2ccc(C#N)cc2)cc1 (stereo partly drawn) : 10.3
Vaccinia inh Venus, Cc1noc(C)c1NC(=O)Nc1ccc2c(c1)C(=O)N([C@H](C)CO)C[C@@H](C)[C@@H](CN(C)S(C)(=O)=O)O2 : 4.4

Some of the compounds tested, so the mix of outcomes need not match the whole.
